VDR inh = Inhibitors of the vitamin D receptor (VDR): qHTS. Vitamin D3 receptor (Homo sapiens), P11473. VDR-SRC2-3 peptide fluorescence polarization, 2 h. Potency, µM, inactives show max response, negative = inhibition, actives largely listed as inhibitors. hit rate 0.93% among 400,000. AID 504847, 2011; active means well fitted inhibition curve with a large enough effect; inconclusive means small, poorly fitted or top-dose-only effect, or another doubt; inactive means no such curve, though single readings can be large or run the other way; further: series mostly up to about 120 µM
Target sequence (P11473 whole entry, looked up): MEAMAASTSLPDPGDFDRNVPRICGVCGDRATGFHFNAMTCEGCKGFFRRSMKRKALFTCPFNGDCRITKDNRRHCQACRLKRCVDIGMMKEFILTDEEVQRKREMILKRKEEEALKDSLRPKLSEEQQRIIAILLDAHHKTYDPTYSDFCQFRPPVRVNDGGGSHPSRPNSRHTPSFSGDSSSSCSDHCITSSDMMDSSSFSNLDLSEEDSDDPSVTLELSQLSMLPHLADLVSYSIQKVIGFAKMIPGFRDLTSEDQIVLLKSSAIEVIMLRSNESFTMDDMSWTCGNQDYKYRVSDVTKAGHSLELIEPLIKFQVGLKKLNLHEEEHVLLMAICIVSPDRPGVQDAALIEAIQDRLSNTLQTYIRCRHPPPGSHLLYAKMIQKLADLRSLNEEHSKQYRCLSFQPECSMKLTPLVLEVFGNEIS
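After 23 nl compound addition and a short centrifugation, plates sat for 2 hours at ambient temperature; polarization of fluorescence then indicated loss of VDR binding to peptide SRC2-3.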
Numbers without * were called inactive; ? = inconclusive. On the % scale 0 is the no-effect control and ±100 the full control effect; potency means the concentration at half of the fitted maximal effect. This is a subset; the hit share may differ from the screen's.

SMILES	VDR inh
Nc1ccc(C#Cc2ccc3c(=O)c4ccccc4oc3c2)cc1	-10%
COc1ccc(Cc2nnc(N)s2)cc1OC	-6%
COc1ccccc1C(NC(C)=O)c1cc(Cl)c2cccnc2c1O (configuration not stated)	-4%
CCOC(=O)c1c(C)oc2nc(C)nc(NCc3cccc(OC)c3)c12	5%
CCOc1ccc(Br)cc1C(=O)Nc1ccc(C(=O)NCC(C)C)cc1	9%
CC(=O)c1cccc(NC(=O)C(C)OC(=O)C2=NNC(=O)CC2)c1 (configuration not stated)	-23%
CC(=O)c1ccc(Nc2nc(=O)c3cccnc3s2)cc1	-3%
CC1CCCC(C)N1C(=O)COC(=O)c1ccccc1O (configuration not stated)	17%
CCc1c(C)sc(NC(=O)c2noc(C)c2[N+](=O)[O-])c1C#N	?
Cc1cc(-n2c(C)cc(C(=O)CCl)c2C)no1	-8%
CC(C)CN1CCC(C(=O)NCC2CCCO2)CC1 (configuration not stated)	-14%
CN(C)[C@@H](CO)c1nnc([C@H](Cc2ccc(O)cc2)NC(=O)C2CCNCC2)o1	7%
N#Cc1c(NC(=O)CCCl)sc2c1CCCCC2	-12%
CCOCc1nnc(NC(=O)CSCc2ccccc2)s1	8%
Cn1cnc2c1c(=O)n(Cc1ccc(Cl)cc1Cl)c(=O)n2C	-12%
Cc1cc2c(cc1S(=O)(=O)N(C)Cc1ccccc1)OCC(=O)N2	-8%
N#Cc1c(/N=C/c2ccccc2)oc(-c2ccccc2)c1-c1ccccc1	-11%
COCCNC(=O)CN1C(=O)CSc2cc(S(=O)(=O)N3CCCCCC3)ccc21	-7%
CC(=O)c1cccc(NC(=O)N2C3CCC2CC(NC(=O)Nc2ccccc2)C3)c1 (configuration not stated)	7%
COc1cc(C(=O)Nc2cccc(-c3nc4cc(C)cc(C)c4o3)c2)cc(OC)c1OC	6%
COCC(C)Nc1ncnc2c1cnn2-c1cccc(Cl)c1 (configuration not stated)	8%
Cc1ccc(CCNC(=O)CCN2N=C(c3ccc(C)cc3)CCC2=O)cc1	12%
CC(c1ccco1)N(C(=O)c1cccc(Br)c1)c1ccccn1 (configuration not stated)	-6%
CCc1ccc(Nc2nc3ccccc3c(=O)s2)cc1	-13%
O=C1N[C@@H](Cc2ccccc2)COC(=O)[C@H](Cc2ccc(F)cc2)CC/C=C/C[C@H]1CC(=O)N(CCO)Cc1ccccc1	-3%
Cc1ccc(OCCC(=O)Nc2ccc(S(=O)(=O)Nc3nccs3)cc2)cc1	1%
O=C(C1=C(O)C(=O)N(Cc2cccnc2)C1c1cccc(Oc2ccccc2)c1)c1ccco1 (configuration not stated)	-25%
O=C(c1cccc(Cl)c1)N1CCN(Cc2ccncc2)CC1	14%
Cc1ccc(/C=C/C(=O)OC(C)C(=O)Nc2ccc(Cl)cn2)o1 (configuration not stated)	?
CNc1ncnc2ccc(-c3cccc(OC)c3)cc12	4%
CC[C@H](C)[C@H](NC(N)=O)C(=O)NCCc1ccc(Cl)cc1Cl	8%
COc1ccc2c(c1)Cc1sc(NC(=O)c3cccs3)nc1-2	-12%
CC12CCC(C(=O)C1)C1(C)CCCC(=O)C21 (configuration not stated)	7%
COc1ccc(CNC(=O)c2ccc(-c3nc(CS(=O)c4ccc(C)cc4)c(C)o3)cc2)cc1 (configuration not stated)	9%
CC(C)/C=C/C(=O)N1CCC(N2CCC(C(=O)NCc3ccccn3)CC2)CC1	0%
COc1cccc(N(C(=O)Cn2nnc(-c3ccc(F)cc3)n2)C(C(=O)NCC2CCCO2)c2ccc(Cl)cc2)c1 (configuration not stated)	-13%
CCOc1ccc(-c2nnc(N3CCCCC3)c3ccccc23)cc1	3%
CCOC(=O)Cc1csc(NC(=O)CSc2nc(-c3ccccc3)c(C#N)c(=O)[nH]2)n1	-2%
CC(=O)NCCc1ccc(C(=O)CSc2nnc(C3CC3)n2C2CC2)cc1	-4%
Cc1cnc(C(=O)Nc2ccc(C(=O)N3CCCCC3)cc2)cn1	-13%
O=C(NCc1cccs1)C1CCCN(C(=O)Nc2ccc(F)cc2)C1 (configuration not stated)	9%
COc1ccc(CNS(=O)(=O)c2ccc3oc(C(=O)O)c(C)c3c2)cc1	9%
COC(=O)[C@]1(C)N[C@H](CN(C)C(=O)c2ccc(C(C)(C)C)cc2)[C@@H]2C(=O)N(Cc3ccccc3)C(=O)[C@@H]21	-4%
Cn1c(=O)c2c(nc(N3CCC(C(N)=O)CC3)n2CCSc2nc3ccccc3s2)n(C)c1=O	-9%
C=C1CCC[C@]2(C)C[C@H]3OC(=O)C(CN(Cc4ccc(OC)c(OC)c4)CC(C)O)[C@H]3CC12 (some centres not stated)	-26%
CC(NC(=O)c1ccc(Br)o1)c1ccc(-n2ccnc2)cc1 (configuration not stated)	11%
CSc1ccccc1NC(=O)C1CCCN(S(C)(=O)=O)C1 (configuration not stated)	12%
O=C(COc1coc(CN2CCCc3ccccc32)cc1=O)Nc1ccccc1	-7%
CCCCSc1nnc(CSc2ncccn2)n1C	6%
COC(=O)c1ccccc1COn1c(=O)c[n+]([O-])c2ccccc21	5%
COC(=O)c1cnc[nH]1	-6%
CCOc1ccc(OCc2cccc(C(=O)N(CC)CC)c2)cc1	-11%
CCN(CC)c1nn2c(=O)c(C(=O)NCc3ccccc3Br)cnc2s1	11%
CCCCOC(=O)CSC1=C(C#N)C(c2ccccc2OCC)C(C#N)C(=O)N1 (configuration not stated)	14%
CCOc1ccc(NC(=O)Nc2cc(C)on2)cc1	-11%
Cn1c(-c2ccccc2)cnc1NCc1cc2c(cc1[N+](=O)[O-])OCO2	-17%
Clc1cccc(Cc2nn[nH]n2)c1	-3%
c1ccc(CC(Nc2ccccn2)c2ccccc2)cc1 (configuration not stated)	-5%
CS(=O)(=O)N(CC(=O)N1CCN(Cc2ccccc2)CC1)c1cccc(F)c1	10%
COc1ccc(C2c3[nH]c4ccccc4c3C[C@H]3C(=O)N(CC(C)C)CC(=O)N23)c(OC)c1 (some centres not stated)	-13%

(continued)
SMILES	VDR inh
Clc1ccccc1-c1cncnc1NCc1cccs1	?
Nc1nc(Nc2ccccc2Br)nc(C(F)(F)F)n1	-7%
CC1CCCC(C)N1CCCNC(=O)Cn1ncc2c3ccccc3n(C)c2c1=O (configuration not stated)	-13%
COc1ccc(S(=O)(=O)Nc2ccc3c(c2)C(=O)N([C@H](C)CO)C[C@H](C)[C@@H](CN(C)S(=O)(=O)c2ccc(OC)cc2)O3)cc1	1%
C=CCN1C=C2C(=O)C(C)(OC(=O)c3cccs3)C(=O)C=C2C=C1CCCC(=O)OC (configuration not stated)	-14%
COCCN(C(=O)c1snc(C(N)=O)c1N)C(C(=O)NC1CCCC1)c1cc(OC)c(OC)c(OC)c1 (configuration not stated)	2%
CCOC(=O)C1=C(COC(=O)/C=C/c2ccc(OC)c(OC)c2)NC(=O)NC1C (configuration not stated)	-1%
O=C(NCC1CCCN1S(=O)(=O)c1cccs1)c1ccc(F)cc1 (configuration not stated)	-1%
Cc1cc(C(=O)Nc2c(C)nn(Cc3ccccc3)c2C)on1	3%
CCCCN1CC(C)(C)Oc2cccc(F)c2S1(=O)=O	-17%
C=CCOc1ccc(/C=C/C(=O)Nc2ccc(C(=O)NC)cc2)cc1	-2%
O=C(NCc1ccccc1)NS(=O)(=O)c1ccccc1Cl	8%
Cc1ccccc1Nc1c(-c2ccccn2)nc2ccccn12	-1%
O=C(NCCCN1CCCCC1)C1CCN(c2ncnc3c2nc2n3CCCCC2)CC1	?
COc1ccc(C2CC(c3ccccc3OC(C)=O)=NN2C(=O)/C=C/c2ccccc2)cc1OC (configuration not stated)	-11%
CSc1ccc(Cl)c(C(=O)NNC(=O)c2cccs2)c1	17%
Cc1[nH]c2ccccc2c1C(=O)/C=C/c1ccccc1	-11%
O=C(CSC1=NCCS1)Nc1nc2ccccc2s1	-14%
COC(=O)Nc1snnc1C	-1%
Cc1ccc(N(C)C(=O)CCS(=O)(=O)c2ccc3c(c2)oc(=O)n3C)cc1	-3%
COc1ccc(-n2c(CN3CCC(C(N)=O)CC3)nc3ccc([N+](=O)[O-])cc3c2=O)c(OC)c1	-5%
COC(=O)c1ccc(CSc2nc3c(c(=O)n2-c2ccc(Br)cc2)SCC3)o1	13%
Cc1cc(Cl)ccc1Nc1ncccc1C(N)=O	1%
COc1ccc(C2=Nn3c(C)nnc3SC2)cc1	15%
CC(C)(C)c1cc[n+](/C(C(=S)Nc2ccccc2F)=C(/[O-])c2ccc3c(c2)OCCO3)cc1	-23%
COc1cc(NC(=O)[C@@H]2CCCN2S(=O)(=O)c2cccc3cccnc23)cc(OC)c1OC	-17%
Cc1nc2nc(N)nn2c(C)c1C/C=C/c1ccccc1	-2%
O=C(NC1CCCCC1)c1cccc(S(=O)(=O)N2CCOCC2)c1	14%
COc1ccccc1Cc1noc(COc2cccc(C)c2C)n1	14%
O=[N+]([O-])c1ccc2[nH]c(O)c(N=NC3CCS(=O)(=O)C3)c2c1 (configuration not stated)	-13%
O=C(C1CCN(C2CCN(Cc3ccc4c(c3)CCO4)CC2)CC1)N1CCCC1	0%
COc1ccc(C(C)(C)C)cc1NS(=O)(=O)c1cccc2cccnc12	-29%
COc1cc(C(=O)Nc2ccc(S(=O)(=O)Nc3nccc(C)n3)cc2)cc(OC)c1OC	-1%
CCN(c1ccccc1)S(=O)(=O)c1ccc(Cl)c(C(=O)NCCc2ccc(OC)cc2)c1	-6%
O=C(c1ccc(CS(=O)c2ccc(F)cc2)o1)N1CCN(C2CCCCC2)CC1 (configuration not stated)	6%
COc1ccccc1CNC(=O)CSCc1cnn(-c2ccccc2)c1-n1cccc1	13%
COc1ccc(-n2cc(-c3ccc(Br)cc3)[nH]c2=S)cc1	-9%
CCCC(=O)NC(c1ccco1)c1c(O)ccc2ccccc12 (configuration not stated)	14%
O=S(=O)(c1cccs1)N1CCCc2ccccc21	0%
COCCNC(=O)c1ccc2c(c1)CCN2S(C)(=O)=O	-7%
COc1ccccc1NC(=O)c1sc2cccc(Cl)c2c1Cl	-15%
CCOc1ccc(C(=O)NCC(=O)NCC(c2ccco2)N2CCCCC2)cc1OCC (configuration not stated)	-3%
COc1ccc(NC(=O)C(=O)N2N=C(C(C)C)CC2(O)C(F)(F)F)cc1 (configuration not stated)	9%
COc1cc(C)ccc1OCCOCCOc1cccc2ccc(C)nc12	4%
COc1ccccc1OCc1nc(C#N)c(NCc2ccc(C)cc2)o1	13%

Sorted by formula weight (ascending): part of the list above.
SMILES	VDR inh
COc1ccc(C2=Nn3c(C)nnc3SC2)cc1	15%
Cc1cc(Cl)ccc1Nc1ncccc1C(N)=O	1%
O=S(=O)(c1cccs1)N1CCCc2ccccc21	0%
COCCNC(=O)c1ccc2c(c1)CCN2S(C)(=O)=O	-7%
CCCC(=O)NC(c1ccco1)c1c(O)ccc2ccccc12 (configuration not stated)	14%
O=[N+]([O-])c1ccc2[nH]c(O)c(N=NC3CCS(=O)(=O)C3)c2c1 (configuration not stated)	-13%
COc1ccccc1OCc1nc(C#N)c(NCc2ccc(C)cc2)o1	13%
COc1ccccc1NC(=O)c1sc2cccc(Cl)c2c1Cl	-15%
COc1ccc(-n2cc(-c3ccc(Br)cc3)[nH]c2=S)cc1	-9%
COc1cc(C)ccc1OCCOCCOc1cccc2ccc(C)nc12	4%
COc1ccc(C(C)(C)C)cc1NS(=O)(=O)c1cccc2cccnc12	-29%
COc1ccc(NC(=O)C(=O)N2N=C(C(C)C)CC2(O)C(F)(F)F)cc1 (configuration not stated)	9%
O=C(C1CCN(C2CCN(Cc3ccc4c(c3)CCO4)CC2)CC1)N1CCCC1	0%
O=C(c1ccc(CS(=O)c2ccc(F)cc2)o1)N1CCN(C2CCCCC2)CC1 (configuration not stated)	6%
COc1ccccc1CNC(=O)CSCc1cnn(-c2ccccc2)c1-n1cccc1	13%
CCOc1ccc(C(=O)NCC(=O)NCC(c2ccco2)N2CCCCC2)cc1OCC (configuration not stated)	-3%
COc1cc(C(=O)Nc2ccc(S(=O)(=O)Nc3nccc(C)n3)cc2)cc(OC)c1OC	-1%
CC(C)(C)c1cc[n+](/C(C(=S)Nc2ccccc2F)=C(/[O-])c2ccc3c(c2)OCCO3)cc1	-23%
COc1cc(NC(=O)[C@@H]2CCCN2S(=O)(=O)c2cccc3cccnc23)cc(OC)c1OC	-17%
CCN(c1ccccc1)S(=O)(=O)c1ccc(Cl)c(C(=O)NCCc2ccc(OC)cc2)c1	-6%

More entries.
SMILES	VDR inh
O=C(NC12CC3CC(CC(C3)C1)C2)c1cccc(OC(F)F)c1	9%
CCCOC(=O)c1ccc(NC(=O)c2ccccc2[N+](=O)[O-])cc1	-18%
O=C(O)c1ccc(/C=N/NC(=O)c2ccc(CN3c4cccc5cccc(c45)S3(=O)=O)cc2)cc1	-2%
O=C(Cc1ccccc1)NN1C(=O)C2C3C=CC(C4CC34)C2C1=O (configuration not stated)	-5%
CCn1c(=O)c(C(C)=O)nc2ccccc21	-10%
COc1ccc(OC)c(S(=O)(=O)Nc2cccc3c(O)cccc23)c1	-12%
COc1cc(/C=N/NC(N)=S)ccc1OCC(=O)Nc1ccc(C)cc1	-27%
CN(Cc1cccs1)c1nc(-c2cccnc2)nc2ccccc12	-20%
O=c1c2ccccc2nc(/C=C/c2cccnc2)n1CCc1ccccc1	-10%
O=C(O)C1CCN(C(=O)CSc2nc3ccccc3c(=O)n2Cc2ccccc2)CC1	-10%
COc1ccc(CC(=O)OCC(=O)NCCc2ccccc2)cc1OC	-20%
Cc1nc2ccc(NC(=S)NC(C)C)cc2nc1C	-5%
CN(CC(=O)Nc1ccc(F)cc1)C(=O)CNC(=O)C1CCCCC1	-19%
CCOC(=O)c1cnn(-c2ccc(C(C)C)cc2)c1NC(=O)C1CCC1	20%
Cc1nc(-c2ccc(F)cc2)c(CC(=O)N(C)CC(=O)Nc2ccccc2C(F)(F)F)s1	10%
CCOC(=O)c1c(NC(=O)COC(=O)c2ccccn2)sc(C(=O)N(C)C)c1C	-19%
COc1ccc(NC(=O)c2ccc(-n3cccn3)c([N+](=O)[O-])c2)cc1	0%
CC(=O)NCCCc1nc2ccccc2n1Cc1ccccc1F	2%

Screens: PubChem BioAssay, National Center for Advancing Translational Sciences (NCATS)
